High-throughput results (PubChem BioAssay)
L3MBTL1 inh: qHTS Assay for the Inhibitors of L3MBTL1. AlphaScreen L3MBTL1–H3K9me1 peptide binding. Potency, µM (highest dose often 57.1 µM), without a hit: top-dose activity, negative = inhibition, actives largely listed as inhibitors. Lethal(3)malignant brain tumor-like protein 1 (Homo sapiens), Q9Y468. 230,000 tested, 0.66% active. AID 485360, 2010; also: nearly all actives have a fitted effect of over 60% in size
Target sequence (Q9Y468 whole entry, looked up): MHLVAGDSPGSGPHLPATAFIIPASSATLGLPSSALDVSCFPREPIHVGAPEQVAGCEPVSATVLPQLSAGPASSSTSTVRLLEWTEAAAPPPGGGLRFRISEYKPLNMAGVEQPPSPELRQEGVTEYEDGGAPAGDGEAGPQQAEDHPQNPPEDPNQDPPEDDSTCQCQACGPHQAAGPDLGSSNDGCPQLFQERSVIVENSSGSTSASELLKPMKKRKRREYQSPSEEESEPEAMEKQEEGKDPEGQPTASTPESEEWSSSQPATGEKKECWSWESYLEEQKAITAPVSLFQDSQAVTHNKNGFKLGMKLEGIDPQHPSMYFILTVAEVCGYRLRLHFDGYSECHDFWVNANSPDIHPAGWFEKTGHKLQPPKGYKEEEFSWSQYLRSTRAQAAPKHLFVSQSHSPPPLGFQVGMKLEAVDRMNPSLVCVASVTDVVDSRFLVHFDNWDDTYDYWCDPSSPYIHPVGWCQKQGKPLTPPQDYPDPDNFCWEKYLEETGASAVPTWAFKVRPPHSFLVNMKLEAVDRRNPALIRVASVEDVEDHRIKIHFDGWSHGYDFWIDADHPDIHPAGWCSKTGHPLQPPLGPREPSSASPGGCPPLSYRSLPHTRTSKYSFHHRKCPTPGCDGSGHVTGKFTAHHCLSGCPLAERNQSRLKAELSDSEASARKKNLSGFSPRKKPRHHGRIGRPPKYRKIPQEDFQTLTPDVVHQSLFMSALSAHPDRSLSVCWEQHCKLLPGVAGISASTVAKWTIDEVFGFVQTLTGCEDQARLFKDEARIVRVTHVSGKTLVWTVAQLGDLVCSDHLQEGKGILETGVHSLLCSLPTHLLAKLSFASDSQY
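AlphaScreen assay: L3MBTL1 (50 nM final) was preincubated 30 min at room temperature with biotinylated H3(1-15)K9me1 peptide (75 nM final), then 30 min with library compounds; streptavidin donor and nickel chelate acceptor beads (10 ug/mL final) added, 30 min dark.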
RGS12 GoLoco inh: qHTS Assay for Inhibitors of RGS12 GoLoco Motif Activity (Red Fluorophore); Potency, µM (top dose mostly 61.6 µM), for inactives: at the highest dose activity, negative = inhibition, most hits filed as inhibitors; 230,000 tested, 0.44% active; Guanine nucleotide-binding protein G(i) subunit alpha-1 (Homo sapiens), P63096; Gai1:RGS12 GoLoco peptide FP, rhodamine, 10 min; active = well fitted inhibition curve with a large enough effect, not every such curve was filed as active; inactive = no such curve, though single readings can be large or run the other way; also: nearly all actives have a fitted effect of over 30% in size; many of its hits are not listed in these tables
RECQ1 helicase: qHTS Assay for Inhibitors of RecQ-Like Dna Helicase 1 (RECQ1). Potency, µM (doses to about 57.3 µM), without a hit: at the top dose activity, negative = inhibition, hits mostly inhibitors. RECQ1 DNA unwinding, red fluorescence kinetic read. ATP-dependent DNA helicase Q1 (Homo sapiens), P46063. 240,000 tested, 0.54% active;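 also: plate controls were vehicle for no effect and no enzyme for full effect; nearly all actives have a fitted effect of over 30% in size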
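RECQ1T1 50 nM; forked duplex (20 bp + 30-nt ss tails) 200 nM, ATP 2 mM final; pH 8.0, 2 mM MgCl2, 2.5 ug/ml poly(dI-dC); 15 min compound preincubation; discontinuous kinetic read over 2 h at RT.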
Tau fibril FP: qHTS for Inhibitors of Tau Fibril Formation, Fluorescence Polarization | 280,000 tested, 0.39% active | Potency, µM (top dose mostly 57.7 µM), inactives show at the top dose activity, negative = inhibition, usual class: inhibitors | K18 P301L tau heparin fibrillization, Alexa594 FP, 6 h | Microtubule-associated protein tau (Homo sapiens), P10636; also: nearly all actives have a fitted effect of over 55% in size
Target sequence (P10636 561-689 P618L limits assumed): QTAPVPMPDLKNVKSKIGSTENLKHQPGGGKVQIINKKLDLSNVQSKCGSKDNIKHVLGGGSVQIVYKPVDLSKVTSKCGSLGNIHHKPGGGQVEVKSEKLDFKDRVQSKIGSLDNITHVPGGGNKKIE
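FP of Alexa 594-tau after heparin (20 uM) induction. Substrate: human K18 P301L, 15 uM unlabeled, 0.24 uM labeled. Buffer 100 mM sodium acetate pH 7. 6 hr, 37 C.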
Tau fibril ThT: qHTS for Inhibitors of Tau Fibril Formation, Thioflavin T Binding | 270,000 tested, 2.1% active | Microtubule-associated protein tau (Homo sapiens), P10636 | Potency, µM (titrated, usually from 57.4 µM), without a hit: at the top dose activity, negative = inhibition, usual class: inhibitors | AID 1460, 2008 | recombinant tau K18 P301L (four-repeat tau fragment), heparin-induced fibrillization, ThT fluorescence; also: nearly all actives have a fitted effect of over 55% in size
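Recombinant human tau K18 fragment […] carrying P301L, 15 uM unlabeled plus 0.24 uM Alexa 594-labeled, was fibrillized with 20 uM heparin in 100 mM sodium acetate pH 7 for 6 hr at 37 C; 30 uM ThT fluorescence read after 1 hr.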
TRb-SRC2 inh: qHTS for Inhibitors of the Interaction of Thyroid Hormone Receptor and Steroid Receptor Coregulator 2 | TRbeta-SRC2 peptide binding, fluorescence polarization; receptor liganded with 1 µM T3 | 280,000 tested, 0.065% active | AID 1469, 2008 | Thyroid hormone receptor beta (Homo sapiens), P10828 | Potency, µM (highest dose often 106 µM), for inactives: at the top dose activity change, negative = inhibition, most hits filed as inhibitors;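 also: plate controls were bound peptide for no effect and peptide without receptor for full effect; nearly all actives have a fitted effect of over 50% in size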
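Each compound concentration gave % activity, normalized to unbound and bound Texas Red SRC2 controls, from polarization read after 5 hr ambient incubation with T3-loaded human TRb LBD.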
TexasRed fluor: Total Fluorescence Counterscreen for Inhibitors of the Interaction of Thyroid Hormone Receptor and Steroid Receptor Coregulator 2 | AID 1479, 2009 | TRb/SRC2 Texas Red total fluorescence interference | 280,000 tested, 0.29% active | Potency, µM (top dose mostly 106 µM), inactives show at the top dose fluorescence change, negative = quenching; active = well fitted curve in either direction with a large enough effect; inconclusive = small, poorly fitted or top-dose-only effect
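Human TRb ligand-binding domain at 0.6 uM with 20 nM Texas Red SRC2 peptide in Tris buffer containing 1 uM T3 and 5% DMSO, incubated with compound 5 h at ambient temperature. Total fluorescence (555/632 nm) calculated as parallel + 2 × perpendicular.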
An asterisk follows results filed as active; i = inactive; ? = inconclusive; nt = not tested or not shown; ! = repeats disagree; [ ] = another dose, or the depositor's remark. Unless noted, calls follow the shape of the dose curve; as a rule, active = well fitted curve in the direction sought with a large enough effect; inconclusive = small, poorly fitted or top-dose-only effect, or another doubt; inactive = no such curve, though single readings can be large; an effect the other way counts as inactive or inconclusive. Unless noted, % is scaled to controls: 0 for no effect and ±100 for the full control effect; potency is read from the fitted curve at half-maximal effect.

SMILES	L3MBTL1 inh	RGS12 GoLoco inh	RECQ1 helicase	Tau fibril FP	Tau fibril ThT	TRb-SRC2 inh	TexasRed fluor
Cc1ccc(S(=O)(=O)N2CCN(C(=O)CN3CCc4ccccc4C3)CC2)cc1	nt	-9%	i	-1%	-7%	-19%	1%
CCN(Cc1ccccc1)c1ccc(/C=N/NS(=O)(=O)c2ccc(C)c([N+](=O)[O-])c2)cc1	-13%	-1%	i	?	?	-12%	4%
COc1ccc(Br)cc1CN1CCN(C(=O)c2ccc(OC)c(OC)c2)CC1	-9%	10%	0%	11%	-11%	6%	-1%
CCN1CCN(CC(=O)Nc2cc(C(F)(F)F)ccc2OCCOC)CC1	nt	1%	i	-7%	-7%	-2%	-3%
O=C(c1ccncc1)N(c1ccc2oc3c(c2c1)CCCC3)S(=O)(=O)c1cccc([N+](=O)[O-])c1	-7%	5%	-11%	?	?	-11%	0%
Cc1ccc(C)c(N2CCN(C(=O)c3ccc(CSc4nc5ccncc5[nH]4)cc3)CC2)c1	-7%	9%	-10%	?	?	2%	-1%
COc1cc(Cl)c(C)cc1NC(=O)c1cccc(OC)c1OC	19%	19%	5%	1%	-17%	-9%	-3%
CCOc1ccc(CN(C)CC(=O)Nc2cccc3ccccc23)cc1OC	-5%	12%	-12%	4%	-11%	1%	-6%
CC1(OC(=O)C2CCCC2)C(=O)C=C2C=C(c3ccsc3)N(C3CCCCC3)C=C2C1=O (centres undefined)	nt	6%[14.2 µM]	14%[11.5 µM]	?	14µM*!	8%[11.2 µM]	1%[11.2 µM]
O=C(O)c1ccc(N2C(=O)c3cccnc3C2=O)cc1	-14%	-6%	0%	1%	3%	6%	-2%
O=[N+]([O-])c1ccc(S(=O)(=O)N2CCN(Cc3c[nH]c4ccccc34)CC2)cc1	nt	-14%	17%	9%	-18%	-10%	1%
CC(C)OCCCNc1ncnc2c1cnn2-c1ccccc1	-1%	-10%	12%	-4%	-17%	1%	-1%
CN(Cc1ccon1)C(=O)CC1C(=O)NCCN1CC(C)(C)C (centres undefined)	1%	-12%	i	-4%	-13%	-9%	2%
OCC1(Cc2ccccc2)CCCN(Cc2ccc(-c3ccco3)cc2)C1 (centres undefined)	-10%	34%[activator]	-1%	5%	-24%	-2%	0%
O=C(NNC(=O)c1ccccc1[N+](=O)[O-])c1cnccn1	nt	4%	i	-12%	-2%	1%	-8%
COCCN(C)C(=O)CC1C(=O)NCCN1CC(c1ccccc1)c1ccccc1 (centres undefined)	-4%	17%	4%	3%	-11%	-8%	-5%
Cc1ccc(NC(=O)c2c(O)c3ccccc3n(C)c2=O)nc1	40%[activator]	-6%	-3%	-7%	?	-18%	-1%
CCn1nc(NC(=O)c2ccncc2)c2cc3cccc(C)c3nc21	-2%	32%[activator]	-1%	-10%	-7%	-4%	3%
C=CCc1cc(OC)ccc1OCCON1C(=O)CCC1=O	0%	-3%	-18%	?	-2%	-3%	-2%
Cc1cccnc1NC(=O)c1c(O)c2ccccc2n(C)c1=O	-1%	14%	7%	2%	?	0%	1%
O=Nc1ccc(NOC(=O)c2ccccc2Br)cc1	-4%	-2%	i	0%	?	-5%	-3%
Cc1cc(N(C)/N=C/c2ccccc2)nc(-c2ccccc2O)n1	3%	-7%	-2%	-14%	?	3%	-1%
CCOc1cc(CNc2ncc(-c3ccc(OC)cc3)n2C)ccc1O	nt	0%	-15%	3%	-23%	0%	-5%
Cc1ccc(NC(=O)CN(C)CC(=O)Nc2ccc(F)c(F)c2F)c(Cl)c1	nt	6%	-3%	1%	-12%	-2%	-2%
O=[N+]([O-])c1ccc(CN2CCCCCC2)s1	?	-13%	-8%	?	?	2%	-11%

(continued)
SMILES	L3MBTL1 inh	RGS12 GoLoco inh	RECQ1 helicase	Tau fibril FP	Tau fibril ThT	TRb-SRC2 inh	TexasRed fluor
CC1(OC(=O)C2CCCC2)C(=O)C=C2C=C(c3ccsc3)N(C3CCCC3)C=C2C1=O (centres undefined)	nt	4%[14.2 µM]	-2%[11.5 µM]	-1%[11.6 µM]	?	-1%[11.2 µM]	-4%[11.2 µM]
O=C(CSc1ccc(-c2ccccn2)nn1)Nc1nccs1	nt	-9%	-14%	-10%	0%	1%	1%
CCOC(=O)CN(C)Cc1c[nH]c2ccccc12	nt	11%	-1%	2%	?	2%	-2%
O=C(N/N=C/c1cnc(N2CCOCC2)s1)c1ccccc1	0%	2%	i	-1%	-11%	2%	-8%
O=C1C(=O)N(Cc2ccco2)C(c2cccs2)/C1=C(\O)c1cccc([N+](=O)[O-])c1 (centres undefined)	?	-8%	0%	?	?	6%	-1%
N#Cc1c[nH]n2c(=O)c3c(nc12)CCC3	-1%	11%	-3%	-5%	2%	-5%	-4%
COc1ccc(C(C#N)Nc2ccc(C)cc2)cc1 (centres undefined)	nt	13%	-11%	1%	-13%	-2%	-2%
COc1ccc(CNC(=S)Nc2ccc3nc(N4CCN(C)CC4)cc(C)c3c2)cc1	nt	-3%	-12%	?	?	-2%	-2%
O=[N+]([O-])c1ccccc1S(=O)(=O)N1CCN(CC2CC3C=CC2C3)CC1 (centres undefined)	-17%	-3%	23%	-3%	-4%	1%	-4%
O=C(CCN1CCCC1)c1cccs1	-13%	-15%	i	9%	-22%	7%	2%
O=[N+]([O-])c1ccc(Cl)c(CN2CCC(O)CC2)c1	-6%	1%	i	-4%	-4%	2%	-2%
CN(C)c1cccc2c(S(=O)(=O)Nc3ccccn3)cccc12	-8%	3%	-9%	-14%	-13%	-4%	1%
Cc1ccc(C)c(-c2cc(C(=O)NN3CCOCC3)c3ccccc3n2)c1	-6%	1%	10%	7%	3%	-1%	-4%
COCCNC(=O)CN1CCN(C(c2ccccc2)c2ccccc2)CC1	-3%	-5%	-8%	-4%	-16%	-7%	0%
Cc1ccc(-c2[nH]n3c(=O)c4c(nc3c2C)CCCC4)cc1	-1%	49%[activator]	-1%	3%	?	-15%	-1%
COc1ccccc1-c1nnc(NC(=O)c2ccc3c(c2)OCO3)s1	-7%	5%	i	-8%	-8%	6%	2%
C/C(=N/NC(=O)c1cccs1)c1ccc(NC(=O)COc2ccc(Cl)cc2Cl)cc1	-4%	-13%	-10%	?	?	-13%	2%
O=C(COC(=O)c1ccccc1NC(=O)c1ccco1)NC1CCS(=O)(=O)C1 (centres undefined)	-3%	10%	-7%	2%	-1%	-5%	-7%
Cn1c(=O)c(C(=O)NCC2CCCO2)c(O)c2ccccc21 (centres undefined)	13%	1%	-4%	-5%	-6%	2%	0%
CCC(C)NC(=O)C1CCCN(c2nc(C)cc(OC)n2)C1 (centres undefined)	2%	13%	1%	9%	6%	-24%	-5%
CN(CCOc1ccccc1)CC(=O)Nc1ccc(S(=O)(=O)N2CCCC2)cc1	-2%	-3%	-16%	7%	-10%	-2%	-6%
O=[N+]([O-])c1cc([N+](=O)[O-])c2cccnc2c1O	-3%	-2%	-6%	-14%	13µM*	-11%	-8%
Cc1cc(=O)[nH]c(N/N=C/C(C)c2ccccc2)n1 (centres undefined)	-1%	1%	1%	?	?	-10%	-1%
COc1cccc(C(=O)N2CCN(C3CCN(Cc4ccccc4)CC3)CC2)c1OC	nt	-1%	i	3%	-6%	2%	-8%
CC1CC(C)CN(CC(=O)Nc2ccc(S(N)(=O)=O)cc2)C1 (centres undefined)	5%	5%	-10%	4%	5%	-8%	0%

Exported bar-delimited: part of the list above.
mol | L3MBTL1 inh | RGS12 GoLoco inh | RECQ1 helicase | Tau fibril FP | Tau fibril ThT | TRb-SRC2 inh | TexasRed fluor
O=C1C(=O)N(Cc2ccco2)C(c2cccs2)/C1=C(\O)c1cccc([N+](=O)[O-])c1 (centres undefined) | ? | -8% | 0% | ? | ? | 6% | -1%
CN(C)c1cccc2c(S(=O)(=O)Nc3ccccn3)cccc12 | -8% | 3% | -9% | -14% | -13% | -4% | 1%

(more compounds)
SMILES	L3MBTL1 inh	RGS12 GoLoco inh	RECQ1 helicase	Tau fibril FP	Tau fibril ThT	TRb-SRC2 inh	TexasRed fluor
CC(NCC1(N2CCOCC2)CCCCC1)C(=O)Nc1ccc(Cl)cc1Cl (centres undefined)	nt	3%	i	5%	-12%	4%	-2%
CCS(=O)(=O)c1cc([N+](=O)[O-])c(Sc2ccccc2NC(C)=O)s1	nt	-1%	-3%	-4%	nt	-2%	1%
CCCc1nc2c(C)ccc(C)c2c(N)c1CC	-6%	-4%	3%	-8%	-13%	-15%	0%
CCn1c2ccccc2c2cc(NC(=O)c3ccc(Br)o3)ccc21	nt	157%[activator]	-13%	?	13µM*	-14%	-6%
COc1cc(NC2c3ncccc3C(=O)N2Cc2ccco2)cc(OC)c1 (centres undefined)	?	25%	-4%	-5%	-11%	-3%	-2%
COc1ccccc1N1CCN(C2CCN(C3CCC(c4ccccc4)CC3)CC2)CC1 (centres undefined)	nt	-3%	i	-10%	-18%	3%	1%
Cc1cccc(-n2cc3c(=O)n(C)c(=O)n(C)c3c2)c1	6%	12%	i	12%	-6%	3%	-6%
Cn1c(SCC(=O)NCCc2ccccc2)nc2c([nH]c3ccccc32)c1=O	10%	-7%	i	-1%	0%	-11%	-1%
COc1ccc(Nc2nc(C)cc(C)c2C(N)=O)c(OC)c1	-10%	-17%	4%	?	?	-1%	3%
CCC(=O)NC(=S)NNC(=O)COc1ccc(Br)cc1	-1%	10%	i	-5%	-14%	-5%	-1%
O=C(CSc1ncn[nH]1)c1ccccc1	-4%	-8%	i	-12%	-10%	-8%	-1%
Cc1cc(NC(=O)CSc2nnc(C3COc4ccccc4O3)n2N)no1 (centres undefined)	-16%	9%	1%	-5%	-12%	12%	3%
CCCn1nc(NC(=O)c2cccs2)c2cc3cccc(C)c3nc21	122%[activator]	9%	-10%	?	?	-1%	-1%

Full records from above. Order of screens: L3MBTL1 inh, RGS12 GoLoco inh, RECQ1 helicase, Tau fibril FP, Tau fibril ThT, TRb-SRC2 inh, TexasRed fluor
Profile of Cc1cccc(-n2cc3c(=O)n(C)c(=O)n(C)c3c2)c1 → 6%, 12%, i, 12%, -6%, 3%, -6%
Profile of COc1ccc(Nc2nc(C)cc(C)c2C(N)=O)c(OC)c1 → -10%, -17%, 4%, ?, ?, -1%, 3%
Profile of Cn1c(SCC(=O)NCCc2ccccc2)nc2c([nH]c3ccccc32)c1=O → 10%, -7%, i, -1%, 0%, -11%, -1%

The list is partial (hit frequency here may not be typical).
